High-throughput results from PubChem BioAssay.
rRNA inh HTS: inhibitors of bacterial rRNA selective over humanized ribosomes. GFP signal change (wild-type ribosome), % (no concentration beside the values). 350,000 compounds, 1.6% hits. E. coli WT GFP vs humanized-ribosome RFP mutants, fluorescence, 24 h; active compounds read low; DMSO median 0, no signal -100;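 active = significant combined selectivity score with lowered wild-type GFP, culture density cut under 30%, mutant RFP and density less affected; inactive = any of these conditions unmet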; also: one replicate is shown; some compounds called inactive have numbers as strong as hits
rRNA inh HTS OD600: recorded beside rRNA inh HTS, whose call it bears; OD600 change, %; measured here: OD600 growth;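 optical density of the mix in the first replicate; 0 = DMSO median and -100 = no signal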
rRNA inh HTS RFP: further read-out of rRNA inh HTS, marked with its call; RFP signal change, %; measured here: RFP humanized mutant strains;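 first replicate; 0 = DMSO median and -100 = no signal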
Numbers without * were called inactive; & = joins results of further samples.

SMILES | rRNA inh HTS | rRNA inh HTS OD600 | rRNA inh HTS RFP
CO[C@@H](CN(C)Cc1nccs1)[C@@H](C)CN([C@@H](C)CO)S(=O)(=O)c1ccc(C)cc1 | -3.9 | -4.1 | -2.5
C[C@@H]1CCCCO[C@H](CN(C)Cc2ccc(Cl)c(Cl)c2)[C@@H](C)CN([C@@H](C)CO)C(=O)c2cc(NC(=O)Nc3ccc(C(F)(F)F)cc3)ccc2O1 | 1.6 | -7.0 | -3.5
COc1ccc(NC(=O)Nc2ccc3c(c2)C(=O)N([C@@H](C)CO)C[C@H](C)[C@H](CN(C)S(=O)(=O)c2ccc(OC)cc2)OCCCC[C@@H](C)O3)cc1 | 1.4 | 7.0 | -3.8
C[C@@H]1CN([C@H](C)CO)C(=O)c2cccc(NC(=O)CCCCCC(=O)Nc3ccccc3N)c2O[C@H]1CN(C)CC1CC1 | -3.0 | 1.1 | -1.1
CC(C)NC(=O)N(C)C[C@@H]1Oc2ccc(NC(=O)NC3CCCCC3)cc2C(=O)N([C@H](C)CO)C[C@@H]1C | 0.7 | 5.3 | -0.3
CN(C)C(=O)C[C@H]1CC[C@@H](NC(=O)NC2CCCC2)[C@@H](CO)O1 | 1.3 | 0.6 | -1.7
C[C@@H]1CN([C@H](C)CO)S(=O)(=O)c2ccc(-c3ccc(F)cc3)cc2O[C@@H]1CN(C)C(=O)C1CC1 | -3.6 | -14.2 | -1.6
C[C@@H]1CN([C@@H](C)CO)S(=O)(=O)c2ccc(/C=C/c3ccccc3)cc2O[C@H]1CN(C)C(=O)c1cccnc1 | -2.1 | -9.5 | 0.2
COc1cccc(S(=O)(=O)N[C@@H]2C=C[C@H](CC(=O)NC3CCC3)O[C@H]2CO)c1 | 0.3 | -3.1 | -0.3
Cc1cccc(Cl)c1NC(=O)NCCCN1CCOCC1 | 5.3 | 6.2 | -1.8

Some of these compounds in order of number of heavy atoms, falling:
SMILES | rRNA inh HTS | rRNA inh HTS OD600 | rRNA inh HTS RFP
C[C@@H]1CCCCO[C@H](CN(C)Cc2ccc(Cl)c(Cl)c2)[C@@H](C)CN([C@@H](C)CO)C(=O)c2cc(NC(=O)Nc3ccc(C(F)(F)F)cc3)ccc2O1 | 1.6 | -7.0 | -3.5
C[C@@H]1CN([C@@H](C)CO)S(=O)(=O)c2ccc(/C=C/c3ccccc3)cc2O[C@H]1CN(C)C(=O)c1cccnc1 | -2.1 | -9.5 | 0.2
CN(C)C(=O)C[C@H]1CC[C@@H](NC(=O)NC2CCCC2)[C@@H](CO)O1 | 1.3 | 0.6 | -1.7

Later entries:
SMILES | rRNA inh HTS | rRNA inh HTS OD600 | rRNA inh HTS RFP
COc1ccc(C#Cc2ccc([C@@H]3[C@H]4CN(C(=O)c5ccccc5)CC(=O)N4[C@H]3CO)cc2)cc1 | 1.9 | 9.7 | -0.5
C[C@@H]1CCCCO[C@H](CN(C)Cc2ccc(C(=O)O)cc2)[C@@H](C)CN([C@@H](C)CO)C(=O)c2cc(NS(=O)(=O)c3cccs3)ccc2O1 | 4.0 | 12.3 | -0.4
CC(C)CC#Cc1cnc2c(c1)C(=O)N([C@@H](C)CO)C[C@@H](C)[C@@H](CN(C)C(=O)Cc1ccncc1)O2 | -2.3 | 8.8 | -2.1
CCCc1cn(CC[C@H]2CC[C@H](NC(=O)Nc3ccc4c(c3)OCO4)[C@@H](CO)O2)nn1 | -0.3 | -0.4 | -1.0
Cc1cc(C(=O)Nc2cccc3c2O[C@@H](CN(C)Cc2ccc(C(F)(F)F)cc2)[C@H](C)CN([C@@H](C)CO)C3=O)n(C)n1 | -2.7 | -3.4 | 0.1
CCCC(=O)Nc1ccc2c(c1)C(=O)N(C)C[C@@H](OC)[C@H](C)CN(C(=O)c1ccccc1F)[C@@H](C)CO2 | 1.6 | 1.4 | 1.9
O=C(C1CC1)N1C[C@@H]2[C@H](c3ccccc31)[C@H](CO)N2C(=O)c1ccccc1 | 0.3 | 3.7 | 0.7
CNC[C@H]1Oc2cc(C#Cc3cccnc3)ccc2S(=O)(=O)N([C@H](C)CO)C[C@@H]1C | -0.5 | -1.6 | 6.7
COCc1cc(=O)n2[nH]c(C)c(-c3ccc(Cl)cc3)c2n1 | -59.2 | -73.3 | -22.2
CC(=O)c1ccc(Nc2nc(C(C)N)cs2)cc1 (stereo unspecified) | 4.7 | 8.9 | 2.1
CN1CCN(C(=O)C[C@H]2C=C[C@H](NC(=O)Nc3ccccc3F)[C@H](CO)O2)CC1 | -0.3 | -5.1 | -1.6
COc1ccc(NC(=O)N2[C@@H]3CNC[C@H]2C3c2ccc(/C=C/c3ccccc3)cc2)cc1 (stereo partly specified) | -56.5&-4.1 | -80.8&6.5 | -17.1&0.0
COc1ccccc1NC(=O)N1CCCCN2[C@H](C1)[C@@H](c1ccc(-c3cccc(F)c3)cc1)[C@@H]2CO | -4.9 | -10.2 | 24.8
Cc1noc(C)c1NC(=O)N(C)C[C@@H]1Oc2c(NC(=O)C3CCOCC3)cccc2C(=O)N([C@H](C)CO)C[C@@H]1C | 0.7 | 3.0 | -3.9
N#Cc1cccc(-c2ccc3c(c2)[C@H]2[C@H](CCN2Cc2ccc4c(c2)OCO4)[C@H](CO)N3)c1 | 9.2 | 0.4 | 1.6
CCCc1c(C(=O)N/N=C/c2ccc(OCc3ccc(F)cc3)cc2)nnn1-c1nonc1N | 9.2 | 11.3 | 0.5
O=C1CNC[C@H]2[C@@H](c3ccc(C4=CCCC4)cc3)[C@@H](CO)N12 | 1.6 | 6.0 | -4.1
COc1ccccc1-c1csc(C(NC(C)=O)c2cccc(F)c2)n1 (stereo unspecified) | 4.4 | -0.3 | 4.4
COC(=O)C[C@H]1CC[C@@H]2[C@H](COc3ccc(NC(=O)c4cccc(OC)c4)cc3C(=O)N2C)O1 | -2.7 | -0.3 | 0.2
COc1ccc(NC(=O)N(C)C[C@@H]2Oc3c(NC(=O)c4cnccn4)cccc3C(=O)N([C@@H](C)CO)C[C@@H]2C)cc1 | 2.0 | 8.5 | -0.9
COc1ccc2c3c([nH]c2c1)[C@H](CO)N(Cc1ccccc1)CC31CN(S(=O)(=O)c2ccc(C)cc2)C1 | 3.0 | -15.0 | -2.4
C[C@@H]1CN([C@@H](C)CO)C(=O)CCCn2nncc2CO[C@H]1CN(C)C(=O)C1CCCCC1 | 2.3&2.0 | 5.3&1.9 | -0.7&-1.8
C[C@@H]1CN([C@H](C)CO)C(=O)Cc2cc(NC(=O)Cc3ccccc3)ccc2O[C@@H]1CN(C)Cc1ccc(-c2ccccc2)cc1 | 0.0 | 6.6 | 0.9
C[C@@H]1CN([C@@H](C)CO)C(=O)c2cc(NC(=O)C3CC3)ccc2O[C@@H]1CN(C)Cc1ccncc1 | 5.2 | 0.3 | -2.6
CS(=O)(=O)Nc1ccc2c(c1)[C@H]1C[C@H](CC(=O)N3CCc4ccccc4C3)O[C@@H](CO)[C@H]1O2 | -1.9 | -7.8 | -2.5
COc1cc(F)ccc1-c1csc(C(NC(C)=O)c2cccc(F)c2)n1 (stereo unspecified) | 8.8 | 15.7 | 3.7
COc1ccc(S(=O)(=O)N(C)C[C@H]2Oc3ccc(NC(=O)Cc4cn(C)c5ccccc45)cc3CC(=O)N([C@H](C)CO)C[C@@H]2C)cc1 | -4.1 | 8.0 | -2.4
CCCCc1c(-c2ccccc2OC)ncn1Cc1ccc(F)c(F)c1 | -55.2 | -79.0 | -16.6
CN1c2ccc(-c3ccc(C#N)cc3)cc2[C@H]2[C@H](CCN2C(=O)c2cccc(F)c2)[C@@H]1CO | -2.2 | -9.0 | 10.4
CCC(=O)N1CC2(CN(C(=O)Cc3ccccc3)C2)c2c(n(C)c3cc(OC)ccc23)[C@@H]1CO | -6.0 | -7.7 | -0.1

Nothing new here: entries from further up.
SMILES | rRNA inh HTS | rRNA inh HTS OD600 | rRNA inh HTS RFP
COc1ccccc1-c1csc(C(NC(C)=O)c2cccc(F)c2)n1 (stereo unspecified) | 4.4 | -0.3 | 4.4
COC(=O)C[C@H]1CC[C@@H]2[C@H](COc3ccc(NC(=O)c4cccc(OC)c4)cc3C(=O)N2C)O1 | -2.7 | -0.3 | 0.2
COc1ccc(NC(=O)N(C)C[C@@H]2Oc3c(NC(=O)c4cnccn4)cccc3C(=O)N([C@@H](C)CO)C[C@@H]2C)cc1 | 2.0 | 8.5 | -0.9
COc1ccc2c3c([nH]c2c1)[C@H](CO)N(Cc1ccccc1)CC31CN(S(=O)(=O)c2ccc(C)cc2)C1 | 3.0 | -15.0 | -2.4
C[C@@H]1CN([C@@H](C)CO)C(=O)CCCn2nncc2CO[C@H]1CN(C)C(=O)C1CCCCC1 | 2.3&2.0 | 5.3&1.9 | -0.7&-1.8
C[C@@H]1CN([C@H](C)CO)C(=O)Cc2cc(NC(=O)Cc3ccccc3)ccc2O[C@@H]1CN(C)Cc1ccc(-c2ccccc2)cc1 | 0.0 | 6.6 | 0.9
C[C@@H]1CN([C@@H](C)CO)C(=O)c2cc(NC(=O)C3CC3)ccc2O[C@@H]1CN(C)Cc1ccncc1 | 5.2 | 0.3 | -2.6
CS(=O)(=O)Nc1ccc2c(c1)[C@H]1C[C@H](CC(=O)N3CCc4ccccc4C3)O[C@@H](CO)[C@H]1O2 | -1.9 | -7.8 | -2.5
COc1cc(F)ccc1-c1csc(C(NC(C)=O)c2cccc(F)c2)n1 (stereo unspecified) | 8.8 | 15.7 | 3.7
COc1ccc(S(=O)(=O)N(C)C[C@H]2Oc3ccc(NC(=O)Cc4cn(C)c5ccccc45)cc3CC(=O)N([C@H](C)CO)C[C@@H]2C)cc1 | -4.1 | 8.0 | -2.4
CCCCc1c(-c2ccccc2OC)ncn1Cc1ccc(F)c(F)c1 | -55.2 | -79.0 | -16.6
CN1c2ccc(-c3ccc(C#N)cc3)cc2[C@H]2[C@H](CCN2C(=O)c2cccc(F)c2)[C@@H]1CO | -2.2 | -9.0 | 10.4
CCC(=O)N1CC2(CN(C(=O)Cc3ccccc3)C2)c2c(n(C)c3cc(OC)ccc23)[C@@H]1CO | -6.0 | -7.7 | -0.1

The list continues:
SMILES | rRNA inh HTS | rRNA inh HTS OD600 | rRNA inh HTS RFP
Cc1ccc(S(=O)(=O)N(C)C[C@@H]2Oc3ncc(C#CCC(C)C)cc3C(=O)N([C@@H](C)CO)C[C@H]2C)cc1 | -1.5 | -10.6 | -1.9
O=C(NC1CCCCC1)N1CC(=O)N2[C@H](CO)[C@H](c3ccc(-c4cccnc4)cc3)[C@@H]2C1 | 2.7 | 1.9 | -1.4
C[C@@H]1CN([C@H](C)CO)S(=O)(=O)c2ccc(-c3ccncc3)cc2O[C@H]1CN(C)Cc1ccc(Oc2ccccc2)cc1 | -1.3 | -9.7 | 1.2
CCCNC(=O)Nc1ccc2c(c1)OC[C@@H](C)N(C(=O)C1CCCCC1)C[C@@H](C)[C@H](OC)CN(C)C2=O | -1.9 | -1.1 | 0.6
COCC(=O)NC[C@H]1[C@@H](c2ccccc2)[C@@H](CO)N1C(C)=O | 4.8 | 7.7 | -0.1
O=C(Nc1ccccc1F)N1CCCCN2[C@H](C1)[C@H](c1ccc(C3=CCCC3)cc1)[C@@H]2CO | -21.0 | -54.9 | 11.2
C[C@@H]1CCCCO[C@@H](CN(C)C(=O)Nc2ccc(F)cc2)[C@H](C)CN([C@@H](C)CO)C(=O)c2cc(NC(=O)Nc3ccc(F)cc3)ccc2O1 | -0.6 | -2.6 | -1.5
Cc1ccc(S(=O)(=O)Nc2ccc3c(c2)C(=O)N([C@H](C)CO)C[C@H](C)[C@H](CN(C)Cc2ccc(C(F)(F)F)cc2)OCCCC[C@H](C)O3)cc1 | 0.6 | -2.6 | 1.2
O=C(C[C@H]1C=C[C@@H](NC(=O)Cc2ccccn2)[C@@H](CO)O1)NCCc1ccccc1 | 2.3 | 6.5 | 1.5
O=C(C[C@@H]1C[C@H]2c3cc(NS(=O)(=O)c4ccc(F)cc4)ccc3O[C@H]2[C@H](CO)O1)NCc1ccccc1 | -2.4 | -25.1 | 3.5
CC(C)CC#Cc1ccc2c(c1)O[C@@H](CN(C)C(=O)CN(C)C)[C@H](C)CN([C@H](C)CO)S2(=O)=O | 6.3 | 1.1 | 7.9
COc1ccc(S(=O)(=O)Nc2ccc3c(c2)C(=O)N([C@H](C)CO)C[C@@H](C)[C@H](CN(C)CC2CC2)OCCCC[C@@H](C)O3)cc1 | 1.3 | -0.4 | -2.2
CCCNC(=O)C[C@@H]1CC[C@H]2[C@@H](COC[C@H](O)CN2Cc2ccncc2)O1 | -0.3 | 1.0 | -1.8
COc1cccc(C#Cc2ccc([C@@H]3[C@H]4CN(C(=O)C5CC5)CC(=O)N4[C@H]3CO)cc2)c1 | -35.7 | -65.0 | 0.0
C[C@H](CO)N1C[C@H](C)[C@@H](CN(C)S(C)(=O)=O)Oc2cc(-c3ccncc3)ccc2S1(=O)=O | 5.5 | 8.9 | 0.2
COc1cccc(NC(=O)N(C)C[C@@H]2Oc3cc(C#Cc4ccccc4)ccc3S(=O)(=O)N([C@H](C)CO)C[C@@H]2C)c1 | 0.9 | 11.1 | -1.6
CN1CCOc2c1cnn(CCO)c2=O | 5.6 | -0.6 | -1.6
C[C@@H]1CN([C@H](C)CO)C(=O)c2cc(C#Cc3ccccn3)cnc2O[C@@H]1CN(C)Cc1cccnc1 | 5.9 | 13.5 | -1.2
CN(C)C(=O)c1cccc(-c2ccccc2[C@@H]2[C@@H](CO)N(C(=O)C3CCC3)[C@H]2C#N)c1 | 0.8 | 12.1 | -4.8
COC(=O)N(C)C[C@@H]1OCc2cnnn2CCCC(=O)N([C@H](C)CO)C[C@@H]1C | 16.1&2.4 | 11.4&0.2 | 2.3&1.1
C[C@@H]1CN([C@H](C)CO)C(=O)Cc2cc(NC(=O)C3CCCCC3)ccc2O[C@H]1CN(C)Cc1ccc(C(=O)Nc2ccccc2N)cc1 | -4.3 | -2.0 | -1.1

Only part of the results is shown. The share of hits here may be higher or lower than overall.
